# PKD1 inh: PKD1 (human) kinase inhibition | PKD1 kinase fluorescence polarization assay | AID 797 | actives 0.056% (n = 200,000) | inhibition, %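 (about 10 µM by stock and volumes)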;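 active means inhibition of 50% or more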;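 further: controls were vehicle for no effect and a reference inhibitor for full effect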
# HSV replic up: HSV replication enhancement; HSV replication augmentation in cells, fold increase; actives 0.005% (n = 220,000); AID 1956; maximum fold increase;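 active means peak rise of 1.5-fold or more in the series; inconclusive means self-fluorescent or not available for retest; tested in PC3 cells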;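 further: first round at 10 µM; read as green reporter fluorescence; hits show the peak of a series up to 25 µM; 1 = signal of infected wells without compound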
# GALR2 ag: activates the human galanin receptor 2; O43603; GALR2-expressing cells, agonist activation read-out; activation, %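 (tested at 5 µM)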; actives 0.48% (n = 140,000); AID 803;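 active means above mean plus 3 SD of all compounds, about 5% in these data, not always enough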;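 further: 0% = vehicle buffer wells and 100% = reference agonist at full effect; tested in CHO reporter cells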
# Target sequence (O43603 whole entry, looked up): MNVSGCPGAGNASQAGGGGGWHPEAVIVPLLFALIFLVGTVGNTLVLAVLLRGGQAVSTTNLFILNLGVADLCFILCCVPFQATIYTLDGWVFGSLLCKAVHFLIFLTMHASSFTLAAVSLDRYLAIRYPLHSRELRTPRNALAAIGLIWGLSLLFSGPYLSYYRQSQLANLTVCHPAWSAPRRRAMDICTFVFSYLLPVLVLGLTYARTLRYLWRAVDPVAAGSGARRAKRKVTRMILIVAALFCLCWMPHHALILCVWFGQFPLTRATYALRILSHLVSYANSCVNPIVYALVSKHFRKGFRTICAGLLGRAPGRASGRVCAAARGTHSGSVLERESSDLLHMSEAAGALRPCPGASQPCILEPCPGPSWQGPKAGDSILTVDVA
# INS promoter inh: TRM-6 insulin promoter activity inhibition; actives 0.9% (n = 130,000); TRM-6 cells (human fetal islet line), insulin promoter-eGFP reporter, imaging; reporter expression induced with tamoxifen; inhibition, % at 2 µM; AID 1273;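 active means inhibition above the mean plus 3 SD, with well images judged a real hit on visual review, cut at about 60% in these data, passing the limit was not always enough; inconclusive means inhibition over the cutoff but images rejected on review; inactive means inhibition not above the cutoff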
# RGS16-Gao HTS: RGS16-Galphao interaction regulator (human); O15492+P09471; bead-based flow cytometry RGS16-Galphao binding, fluorescence; actives lie on both sides; binding response (% of control), % at 10 µM; actives 0.38% (n = 220,000);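 active means below 25% or above 175%, edge rows of some plates excepted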;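 further: Galphao activated by GDP with aluminum fluoride before binding; 100% = wells without compound and 0% = beads without RGS; some results beyond the cut were filed as inactive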
# Target sequence (O15492 whole entry, looked up): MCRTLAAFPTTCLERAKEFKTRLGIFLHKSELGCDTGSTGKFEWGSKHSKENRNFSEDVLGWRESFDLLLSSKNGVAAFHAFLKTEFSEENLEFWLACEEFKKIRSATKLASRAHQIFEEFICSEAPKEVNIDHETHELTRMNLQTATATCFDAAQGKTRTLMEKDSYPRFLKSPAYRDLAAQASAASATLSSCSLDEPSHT
# Target sequence (P09471 whole entry, looked up): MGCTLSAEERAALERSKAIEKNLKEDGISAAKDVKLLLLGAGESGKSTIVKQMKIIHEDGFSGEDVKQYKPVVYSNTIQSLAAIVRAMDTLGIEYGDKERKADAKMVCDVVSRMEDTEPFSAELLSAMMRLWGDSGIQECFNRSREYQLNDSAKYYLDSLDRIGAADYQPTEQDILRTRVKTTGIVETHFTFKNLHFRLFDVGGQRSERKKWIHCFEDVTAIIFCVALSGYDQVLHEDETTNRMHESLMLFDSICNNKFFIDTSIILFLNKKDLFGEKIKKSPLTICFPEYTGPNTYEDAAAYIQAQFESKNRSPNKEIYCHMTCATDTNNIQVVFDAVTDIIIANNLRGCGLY
# INS promoter inh cell count: recorded beside INS promoter inh, whose call it bears; normalized cell count, %; measured here: cell count, toxicity; reference of the scale not given here;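 cells exposed to compound for 48 h; stained nuclei by imaging scaled within each plate; lower means fewer cells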
# HSV replic up primary fold: further read-out of HSV replic up, marked with its call; fold increase; compound at 10 µM; measured here: primary screen fold increase 10 uM; tested in PC3 cells;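 GFP signal in the first replicate; 1 = infected wells without compound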
# * hit, by the source's call; i = inactive; ? = inconclusive; nt = not tested or not shown.
SMILES,PKD1 inh,HSV replic up,HSV replic up primary fold,GALR2 ag,INS promoter inh,INS promoter inh cell count,RGS16-Gao HTS
COc1cnn(-c2cc(Oc3ccc(C)cc3)ncn2)c(=O)c1Cl,-3,i,0.84,-1.1,-8,117,103
CC1(c2ccc(C#N)cc2)NC(=O)N(CC(=O)Nc2cc(S(=O)(=O)N3CCOCC3)ccc2Cl)C1=O (stereo unspecified),-3,i,1.1,nt,-50,90,108
CCCCOc1ccc(C(=O)CCNC(C(=O)O)C(C)CC)cc1 (stereo unspecified),-3,nt,nt,-0.2,3,132,nt
CN(Cc1ccc(F)cc1)C(=O)c1cc(COc2ccc(F)cc2F)on1,-1,i,0.99,nt,nt,nt,104
CC(=O)N(Cc1c(C#N)c2ccccc2n1C)c1ccccc1,-5,i,0.98,-0.8,25,101,106
CCSC1=N/C(=C\c2cccnc2)C(=O)N1c1ccccc1,-8,i,0.92,0.8,-18,72,108
Cc1ccc(NC(=O)NNS(=O)(=O)c2ccc(Br)cc2)cc1,-6,i,0.85,-2.4,4,94,72
CCSC1=NCCN1C(=O)c1ccc(S(=O)(=O)N(C)C)cc1,-1,i,0.89,nt,15,101,101
O=C(CSc1nccc(=O)[nH]1)NC1CCCc2ccccc21 (stereo unspecified),nt,i,0.95,nt,nt,nt,105
COCCCN=C1NN=C(c2cc(C)n(Cc3ccco3)c2C)CS1,-7,i,1,1.8,-144,4,42
CC1=C2C3OC(=O)C(C)[C@@H]3CC[C@](C)(O)C2C2C3C4C5(C12)[C@H]1OC(=O)[C@@H](C)C1CC[C@]4(C)O[C@]5(C)[C@@H]3O (stereo partly specified),6,i,0.98,-0.2,-31,129,109
COc1ccc(CNC(=O)Nc2ccccc2)cc1,nt,i,0.91,nt,nt,nt,96
CC(CC(=O)N1CCN(c2ccccc2F)CC1)c1ccccc1 (stereo unspecified),-3,i,1.1,-0.3,-364,42,127
CC(=O)Nc1ccc(S(=O)(=O)NCc2ccc(C(=O)NCCN3CCCCCC3)cc2)cc1,-1,i,0.93,-1.6,nt,nt,100
CN(C)c1ccc(C=Nc2ccccc2)cc1,-12,i,0.69,-0.4,-13,86,95
CCN(CC)S(=O)(=O)c1ccc(F)c(C(=O)NCCCN2CCOCC2)c1,1,i,1.1,-0.7,19,90,103
O=C(CSCc1ccccc1)Nc1ccc(Cl)cn1,-3,i,0.78,-2.7,-93,82,103
CCOc1cccc(OCCn2cnc3ccccc3c2=O)c1,-10,i,1,-0.5,-13,90,113
O=C1NCCNC(=O)c2ccccc2OCCOc2ccccc21,4,i,0.95,-0.8,nt,nt,87
Brc1ccccc1OCCCn1cnc2ccccc21,1,i,0.91,-2.0,28,123,108

# Part of the list above, reformatted:
# Below each SMILES – PKD1 inh	HSV replic up	HSV replic up primary fold	GALR2 ag	INS promoter inh	INS promoter inh cell count	RGS16-Gao HTS
- O=C(CSCc1ccccc1)Nc1ccc(Cl)cn1
    -3	i	0.78	-2.7	-93	82	103
- O=C(CSc1nccc(=O)[nH]1)NC1CCCc2ccccc21 (stereo unspecified)
    nt	i	0.95	nt	nt	nt	105

# (cont.)
SMILES,PKD1 inh,HSV replic up,HSV replic up primary fold,GALR2 ag,INS promoter inh,INS promoter inh cell count,RGS16-Gao HTS
O=C(c1ccccc1)c1coc2ccc(O)c(Cl)c12,-5,i,0.81,-0.6,nt,nt,97
CC(C)(C)n1nnnc1C(c1ccccc1F)N(Cc1ccco1)CC1CCCO1 (stereo unspecified),6,i,0.9,-0.6,-29,96,102
CC12CCC(C(=O)N3CCN(c4ncccn4)CC3)(c3nc4ccccc4nc31)C2(C)C (stereo unspecified),-3,i,0.87,-2.2,67,98,98
C=CCSC1=N/C(=C/c2ccsc2)C(=O)N1c1ccccc1,-3,i,0.92,0.1,38,76,102
COc1cc(CCNC(=O)c2cnn3ccccc23)cc(OC)c1OC,-9,i,0.61,-1.4,nt,nt,101
O=S1(=O)CCN2C(=N1)SC1=C2CCN(Cc2ccccc2)C1,-8,i,0.95,-1.3,1,181,101
c1ccc(CNc2ncnc3scc(-c4cccs4)c23)nc1,9,i,0.89,nt,-8,103,96
COc1ccc(NC(=O)CO/N=C2\CCCc3nonc32)cc1,-9,i,0.95,-1.1,-30,121,104
CSc1ccc(CN2CCN(Cc3ccc([N+](=O)[O-])cc3)CC2)cc1,-5,i,0.96,nt,-23,99,103
Cc1cc(OCC(=O)N(C(C)C)C(C)C)cc(C)c1Br,2,i,1,-1.5,-124,97,103
CCC12C(=O)C(CC)(C(c3ccccc3)=C1c1ccccc1)[C@@H]1C(=O)N(c3ccccc3)C(=O)C12 (stereo partly specified),1,i,0.97,-0.7,nt,nt,93
CCCC/C(C)=N/NC(=O)Nc1ccccc1,3,i,1,-1.2,13,83,97
C=CCc1cccc2cc(NC(C)=O)c(=O)oc12,-6,i,0.99,-1.1,33,127,95
Cc1ccc(C(NC(=O)N2CCCCC2)=C(Cl)Cl)cc1F,0,i,1.1,0.4,nt,nt,120
O=C(CNc1cccc2ccccc12)N/N=C/c1ccccn1,nt,i,0.93,nt,nt,nt,103
COc1ccccc1/C=C/C=C1\Oc2c(ccc(O)c2CN2CCN(CCO)CC2)C1=O,1,?,nt,0.2,13,65,284
O=C(C[n+]1ccccc1)Nc1ccccc1C(=O)O,-3,i,1,nt,0,84,130
COc1ccc(C(=O)N2CCc3cc(OC)c(OC)cc3C2c2cccc([N+](=O)[O-])c2)cc1 (stereo unspecified),-2,nt,nt,-2.9,nt,nt,101
CCOc1ccc(C2c3cc(OC)c(OC)cc3CC(=O)N2c2ccc(OC)cc2)cc1 (stereo unspecified),-13,i,0.82,-1.2,nt,nt,103
CC(C)c1nc2cc3ccccc3cc2[nH]1,2,i,0.93,-1.0,86*,137*,93

# Shown with each value named: entries from further up.
c1ccc(CNc2ncnc3scc(-c4cccs4)c23)nc1
  PKD1 inh = 9
  HSV replic up = i
  HSV replic up primary fold = 0.89
  GALR2 ag = nt
  INS promoter inh = -8
  INS promoter inh cell count = 103
  RGS16-Gao HTS = 96
CCC12C(=O)C(CC)(C(c3ccccc3)=C1c1ccccc1)[C@@H]1C(=O)N(c3ccccc3)C(=O)C12 (stereo partly specified)
  PKD1 inh = 1
  HSV replic up = i
  HSV replic up primary fold = 0.97
  GALR2 ag = -0.7
  INS promoter inh = nt
  INS promoter inh cell count = nt
  RGS16-Gao HTS = 93
CSc1ccc(CN2CCN(Cc3ccc([N+](=O)[O-])cc3)CC2)cc1
  PKD1 inh = -5
  HSV replic up = i
  HSV replic up primary fold = 0.96
  GALR2 ag = nt
  INS promoter inh = -23
  INS promoter inh cell count = 99
  RGS16-Gao HTS = 103

# (cont.)
SMILES,PKD1 inh,HSV replic up,HSV replic up primary fold,GALR2 ag,INS promoter inh,INS promoter inh cell count,RGS16-Gao HTS
COc1ccc(C(=O)N2CCn3c2nc2ccccc23)cc1,-5,i,0.99,nt,12,139,107
CCCCOc1ccc(C(=O)Nc2ccc(C)cc2[N+](=O)[O-])cc1,-5,i,0.93,-0.7,-53,83,102
O=[N+]([O-])c1ccc(NC(=S)N2CCN(c3ccccc3)CC2)cc1,6,nt,nt,-0.9,nt,nt,103
CCc1cccc(C)c1NC(=S)N(CCOC)C(C)c1ccco1 (stereo unspecified),nt,i,0.93,nt,nt,nt,101
O=C(CN(CCc1ccccc1)S(=O)(=O)c1ccc(Br)cc1)N/N=C/c1ccc2c(c1)OCO2,0,i,1,0.2,-12,157,94
Cc1ccc(NC(=S)Nc2ccc3cn[nH]c3c2)cc1C,8,i,0.97,0.1,nt,nt,100
C(=C\c1ccccn1)/c1ccccn1,nt,i,1.1,nt,nt,nt,85
CCOCCCNC(=O)CCCC1=NS(=O)(=O)c2ccccc2N1,-20,i,0.98,-2.6,-61,46,106
COc1ccc(N(C(=O)COc2ccccc2)C2C=CS(=O)(=O)C2)c(OC)c1 (stereo unspecified),-4,i,0.98,-2.5,0,63,102
CC(=O)Nc1ccc(C(=O)N/N=C/c2cc(Br)cc(Br)c2O)cc1,-1,i,1,nt,nt,nt,97
N#CCCN(C1CCCCC1)S(=O)(=O)CCOc1ccccc1,4,i,1.1,-0.4,nt,nt,99
COc1ccc(NC(=O)C2CCCN(S(=O)(=O)c3cccc4cccnc34)C2)cc1OC (stereo unspecified),-5,i,0.95,-0.6,nt,nt,98
CCOc1cc(CNCCc2ccc(S(N)(=O)=O)cc2)ccc1OCc1ccc(Cl)cc1,0,i,0.59,0.7,nt,nt,104
O=C(CN1CCN(c2ccc(F)cc2)CC1)NC(=O)NCc1ccco1,-2,i,1,nt,-14,84,90
CCCN(C(=O)c1cc2c(s1)CCC2)c1c(N)n(Cc2ccccc2)c(=O)[nH]c1=O,nt,i,1,nt,nt,nt,92
O=C1CN(S(=O)(=O)c2ccc(Cl)cc2)CC(=O)N1CCc1ccccc1,-7,i,1.1,-2.5,-50,81,105
CC(CC(=O)Nc1ccccc1)n1ccnc1 (stereo unspecified),-6,i,0.97,nt,-27,54,125
Cc1ccccc1Oc1ncnc(N)c1[N+](=O)[O-],1,i,0.88,nt,-8,204,101
Cn1c(SCc2cc([N+](=O)[O-])cc3c2OCOC3)nnc1-c1ccccn1,1,i,0.88,nt,0,78,98
O=C(O)[C@H]1CCCC[C@H]1C(=O)NCCc1ccccc1,4,i,1.2,-1.4,25,113,99

# In the list so far, these contain bromine.
SMILES,PKD1 inh,HSV replic up,HSV replic up primary fold,GALR2 ag,INS promoter inh,INS promoter inh cell count,RGS16-Gao HTS
Cc1ccc(NC(=O)NNS(=O)(=O)c2ccc(Br)cc2)cc1,-6,i,0.85,-2.4,4,94,72
Brc1ccccc1OCCCn1cnc2ccccc21,1,i,0.91,-2.0,28,123,108
Cc1cc(OCC(=O)N(C(C)C)C(C)C)cc(C)c1Br,2,i,1,-1.5,-124,97,103
O=C(CN(CCc1ccccc1)S(=O)(=O)c1ccc(Br)cc1)N/N=C/c1ccc2c(c1)OCO2,0,i,1,0.2,-12,157,94
CC(=O)Nc1ccc(C(=O)N/N=C/c2cc(Br)cc(Br)c2O)cc1,-1,i,1,nt,nt,nt,97

# Next part
SMILES,PKD1 inh,HSV replic up,HSV replic up primary fold,GALR2 ag,INS promoter inh,INS promoter inh cell count,RGS16-Gao HTS
CC(=O)c1ccc(Oc2cnccn2)cc1,-5,i,0.93,nt,nt,nt,108
CCOC(=O)c1c(NC(C)=O)sc2c1CCCNC2=O,15,i,0.84,-2.9,nt,nt,35
O=C(CCc1ccccc1)Nc1ccc(S(=O)(=O)N2CCCC2)cc1,0,i,0.92,nt,nt,nt,144
O=S(=O)(CC(CN1CCCC1)N1CCCC1)c1ccc2ccccc2c1 (stereo unspecified),1,i,1,-0.8,43,33,104
C[C@H](NC(=O)C1(c2ccccc2)CCN(C(=O)[C@H]2CSCN2C(=O)OC(C)(C)C)CC1)C(=O)O,-6,i,0.85,-2.6,nt,nt,103
Nc1ccc(N(c2ccccc2)c2ccc(N)cc2)cc1,-8,i,0.51,-0.5,0,69,86
O=C(NC(=O)c1ccncc1)NC(c1ccccc1)c1ccccc1,-3,i,0.82,-0.7,8,72,99
CC(=O)c1ccc(NC(=O)CSc2nc(C)cc(C)c2C(N)=O)cc1,-12,i,0.97,nt,nt,nt,101
CCOC(=O)Cc1csc(NC(=O)CCCCCN2C(=O)c3cccc4cccc(c34)C2=O)n1,-8,i,1.1,-0.1,56,159,nt
CCC1(C)CC(C(N)=S)CCO1 (stereo unspecified),nt,i,1,nt,nt,nt,98

# Compound activity (PubChem)
